HepG2 = HepG2 cell cytotoxicity, dose response, cytotoxicity control, ATP luminescence, cherry-pick, activator set 2 (AID 1053143) | HepG2 viability, CellTiter-Glo ATP luminescence, 72 h | activity change, negative = cytotoxicity, % at the top dose, mostly 26 µM; hits show AC50 in µM | hit rate 3.7% among 3,400;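 active = fitted AC50 at most twice the highest valid dose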;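 note: 0 = neutral control and -100 = positive control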
* = called active by the depositor; [ ] = dose if it differs, or a comment. Some of the compounds tested, so the mix of outcomes need not match the whole.

| Molecule | HepG2 |
| --- | --- |
| COc1ccccc1C(=O)NC(=O)Nc1cccc(Cl)c1 | -8.5%[6 µM] |
| CCN(CC)C(=O)c1nc(-c2cccc3ccccc23)no1 | -8.6% |
| Nc1c(C(=O)c2ccccc2)sc2nsc(SCCN3CCOCC3)c12 | 51.6µM* |
| CCOC(=O)c1c(C)[nH]c(N=Nc2ccccc2Cl)c1C | -25.6% |
| Nc1ncccc1OCc1ccc(Cl)c(Cl)c1 | -13.3% |
| Cc1ccc(C(=O)NC2=NCCS2)cc1 | -9.6% |
| Cn1c(NC(=O)c2ccccc2F)c(-c2cccs2)c(=O)c2ccccc21 | -4.8% |
| COc1ccc(-c2cc3nc4n(c(=O)c3s2)CCCCC4)cc1 | -21.1% |
| CCn1c(C)nc2cc(C(=O)N/N=C/c3cccc(O)c3O)ccc21 | -14.0% |
| O=C(COC(=O)c1ccc(O)cc1O)c1ccc2c(c1)OCO2 | -13.2% |
| CCON1C(=O)C(C)(C)N(OCC)C(=O)C1(C)C | -2.5% |
| Cc1cccc(C)c1OCc1cc(C(=O)N2CCN(c3ccc(F)cc3)CC2)no1 | -8.7% |

A draw from above in order of formula weight, smallest number first.
| Molecule | HepG2 |
| --- | --- |
| CCON1C(=O)C(C)(C)N(OCC)C(=O)C1(C)C | -2.5% |
| CCn1c(C)nc2cc(C(=O)N/N=C/c3cccc(O)c3O)ccc21 | -14.0% |
| Cn1c(NC(=O)c2ccccc2F)c(-c2cccs2)c(=O)c2ccccc21 | -4.8% |

Carrying on.
| Molecule | HepG2 |
| --- | --- |
| CCCCOc1ncnc2c1[nH]c1ccc(C)cc12 | -30.1% |
| O=C(Nc1nc(-c2ccccn2)cs1)C12CC3CC(CC(O)(C3)C1)C2 | -12.5% |
| Cc1ccc2cc3c(N)c(C(=O)N4CCOCC4)sc3nc2c1 | -4.0% |
| COc1ccc(NC(=O)/C(=C\c2ccc3c(c2)OCO3)NC(C)=O)cc1 | -15.9% |
| O=C(Nn1cnc2ccccc2c1=O)c1c(F)cccc1F | -0.4% |
| Cc1ccc(-c2csc(NC(=O)c3ccco3)n2)cc1C | 3.4% |
| c1ccc(-c2nnc(-c3ccccn3)nn2)nc1 | -17.4% |
| CN(C)c1ccc(/C=N/N2CCN(c3ccccn3)CC2)cc1 | -2.8% |
| Cc1cc(C(=O)COC(=O)c2ccc(N)c([N+](=O)[O-])c2)c(C)n1Cc1ccc2c(c1)OCO2 | 0.3% |
| O=C(NC1CCCCCCC1)NC1CCCCC1 | 1.7% |
| Cc1cc(N(C)C)ccc1N=Nc1ccc2ncccc2c1 | 2.7% |
| Cc1ccc(NC(=O)CCC(=O)NNC(=O)C(C)(C)C)c(C)c1 | -6.5% |
| Cc1ccc2cc(NC(=O)c3cccc(F)c3)ccc2n1 | -11.1% |
| COC(=O)C1CCN(C(=O)c2ccc3nc(-c4cccc(OC)c4)oc3c2)CC1 | 19.1% |
| O=C(NC1CCCCC1)c1cc(-c2cccs2)on1 | -1.2% |
| c1ccc(C2Oc3ccccc3C3CC(c4cccs4)=NN32)cc1 (stereo unspecified) | -9.0%[6 µM] |
| Cc1ccc(C(=O)Nc2ncc(Cc3ccccc3)s2)o1 | 12µM* |
| Clc1ccc2nc3c4ccccc4cnn3c2c1 | -7.5% |
| Cc1cnc(NC(=O)c2ccc3ncsc3c2)s1 | -12.4% |
| Cc1cccc(Nc2ncnc3ccccc23)c1 | -9.7% |
| CC1CC1C(=O)OCc1cc(=O)n2cc(Br)ccc2n1 (stereo unspecified) | 4.4% |
| Cc1ccc2nc(NC(=O)c3ccc(Cl)s3)sc2c1 | -14.8% |
| COc1ccc(/C=C2/CCc3ccccc3C2=O)cc1OC | -9.0% |
| O=C(COC(=O)c1cccs1)c1ccc2ccccc2c1 | -0.2% |
| Clc1ccc(-c2cnn3c(-c4ccncc4)ccnc23)cc1 | -1.2% |
| COc1ccccc1NC(=O)CSc1nnc(-c2ccc(C)cc2)o1 | -20.0% |
| CCOC(=O)C1(Cc2cccc(OC)c2)CCCN(C(=O)c2ccccc2C)C1 (stereo unspecified) | -9.4% |
| O=C(Nc1nc2ccccc2[nH]1)c1cccs1 | -17.5% |
| COc1ccc(C(=O)/C=C/c2ccccc2C(F)(F)F)cc1 | -19.5%[12 µM] |
| O=C(COc1ccc(Br)cc1Cl)NC(=O)NC1CCCC1 | 21.8% |
| CN(Cc1cc2ccccc2[nH]c1=O)C(=O)COc1ccccc1 | 4.1% |
| Cc1nn2c(-c3ccccc3)ccnc2c1-c1ccccc1 | -17.7% |
| Cc1ccc(N2C(=O)c3cccc4c([N+](=O)[O-])ccc(c34)C2=O)c2cccnc12 | 14.1%[12 µM] |
| O=C(Nc1ccc(OC(F)(F)F)cc1)c1n[nH]c(Cn2cncn2)n1 | 8.6% |
| Cc1ccc(-n2c(C)cc(C(=O)CSc3nnnn3C)c2C)cc1 | -26.6% |
| COc1ccc(/C=C/C(=O)c2ccccn2)cc1 | -5.2% |
| C=CCSc1cc(C)nc2c(-c3ccccc3)cnn12 | -26.0% |
| c1ccc(-c2ccc(-c3ccncn3)cc2)cc1 | -23.9% |
| CCOC(=O)C1CCN(C(=O)c2cc(COc3ccc(OC)c4ccccc34)on2)CC1 | -8.0% |
| O=C(Nc1ccc(F)cc1)c1cc2c(s1)CCCC2 | -18.2% |
| O=C(Nc1nc2c(F)cccc2s1)c1ccco1 | -9.0% |
| C=CCSc1nnc2c(n1)OC(c1cccnc1)Nc1ccccc1-2 (stereo unspecified) | -4.1% |
| COc1ccc(C(=O)Nc2ccc3c(c2)OCCO3)c(OC)c1 | -10.3% |
| COc1ccc2oc(=Nc3ccccc3)c(-c3nc4ccccc4[nH]3)cc2c1 | -30.3% |
| Nc1nn2cc(-c3ccc(Br)cc3)nc2c2ccccc12 | -16.1% |
| O=C(c1cc(-c2cccc(O)c2)on1)N1CCCCCC1 | 4.6% |
| COc1cc(OC)cc(C(=O)Oc2ccc(/C=N/Nc3nc4ccccc4s3)cc2OC)c1 | -8.0% |
| Cc1nn(Cc2ccccc2)c(Cl)c1C(=O)NCCc1ccccc1 | -3.9% |

(more compounds)
structure	HepG2
COc1ccc2c(n1)Sc1nc3ccccc3nc1N2	-16.6%
CCCn1c(C)cc(C(=O)Cn2nnc3ccccc3c2=O)c1C	9.3%
Fc1ccc2cc(-c3ccsc3)ncc2c1	0.5%
Cc1cccc(/N=C/c2sc3ccccc3c2O)n1	-10.9%
COc1ccc(C(=O)O/N=C(\N)c2ccc(Cl)cc2)cc1	-9.5%
O=C(Nc1ccc(C(=O)c2ccccc2)cc1)c1ccccc1	-10.0%
Cc1ccc(OCC(=O)Nc2ccccc2F)cc1C	12.0%
CCOC(=O)c1ccc(S(=O)(=O)NCCNCc2ccccc2)cc1	27.4%[12 µM]
Oc1[nH]c2ccccc2c1N=Nc1ccccc1	-22.9%
CN(CCO)c1c2c(nc3cc(-c4cccc(F)c4)nn13)CCCC2	-1.6%
O=C(Nc1cc(-c2ccccc2)cs1)c1ccco1	-12.4%
Cc1cc(C)c(C#N)c(SCC(=O)Nc2ccc3c(c2)OCO3)n1	-7.5%
Cc1ccc(C(=O)CSc2nc(C(C)C)nc3ccccc23)cc1	-14.7%
Cc1cccc(OCC(=O)Nc2cccc(O)c2)c1	-7.4%
Cc1ccc(NC(=O)Nc2cccc(C)n2)c(C)c1	-16.3%
Oc1[nH]c2ccccc2c1C=Nc1ccccc1	-12.5%
CC(C)c1ccc(/C=N/N2CCCCC2)cc1	-5.2%
C/C(=N\NC(=O)c1ccccn1)c1ccc(Cl)cc1	8.9%
CC1CCC(C(C)C)C(OC(=O)COC(=O)c2cc(O)ccc2N)C1 (stereo unspecified)	26µM*
Cc1cc(C(=O)NC2CCCCCCC2)ccc1[N+](=O)[O-]	-3.5%
C=CCNC(=O)c1ccc2c3n(nc2c1)-c1ccc(Cl)cc1CO3	-14.4%
O=C(N/C=C/c1ccccc1)c1ccccc1	-2.5%
O=C1/C(=C/c2cccs2)CCC/C1=C\c1cccs1	-15.0%
O=C(CSc1nc2ccccc2[nH]1)c1ccc2c(c1)OCO2	-8.3%[12 µM]
Cc1cccc(C)c1OCc1cc(C(=O)N2CC3C[C@@H]4CC2C[C@H](C3)C4)no1	-0.8%
CCC(=O)Nc1ccc2nn(-c3ccc(F)cc3)nc2c1	-11.6%
O=C(NOCc1ccccc1)c1ccc([N+](=O)[O-])cc1	-13.0%
O=C(Nc1ccccc1F)Nc1ccccc1N1CCCCC1	-1.1%
O=C(/C=C/c1ccc2c(c1)OCO2)Nc1nc2ccc(F)cc2s1	-6.6%
Fc1ccccc1COc1ccc(/C=N/n2cnnc2)cc1	-11.0%
COC(=O)c1ccc(-n2cnc3ccccc32)nc1	-17.3%
Cc1ccc(-c2nc(Nc3ccccc3)n[nH]2)cc1	-0.3%
COc1ccc(/C=N/Nc2ccccn2)cc1O	-4.9%
O=c1[nH]c(-c2ccco2)nc2sc3c(c12)CCCC3	-0.8%
Fc1ccccc1C1CC(c2ccco2)=Nc2ccccc2S1 (stereo unspecified)	2.9%
COc1ccc(-c2cc(-c3ccc(Cl)cc3)n[nH]2)c(O)c1	-21.5%
O=C(c1ccccc1)c1ccc(-c2ccc(O)cc2)cc1	-12.1%
O=C(Nc1nccs1)c1ccc(N2CCOCC2)c([N+](=O)[O-])c1	-9.9%
COc1ccc(C(=O)Nc2ccc3c(c2)nc2n3CCSC2)cc1	-0.4%
O=C(CCN1CCN(c2ccccc2)CC1)Nc1ccc(OCc2ccccc2)cc1	-2.1%
COc1ccc(C(=O)/C=C/c2ccccc2F)c(OC(=O)c2ccc([N+](=O)[O-])cc2)c1	-24.4%
CN(c1ccc(C(=O)NCCSC(C)(C)C)cc1)S(=O)(=O)c1ccccc1	6.2%
COc1cccc(C(=O)Oc2ccccc2/C=C\C(=O)c2cc3ccccc3o2)c1	-12.3%[12 µM]
CCCc1cc(-c2ccc3c(c2)COc2c4ccccc4nn2-3)on1	-10.8%
Nc1c(C(=O)Nc2ccc3c(c2)OCCO3)nnn1Cc1cccc(Br)c1	-6.8%
O=C(c1cccs1)n1nc(-c2ccc(Cl)cc2)nc1NCc1ccco1	-13.9%
Oc1ccc(-c2cnc3ccccc3n2)cc1	-12.0%
Cc1ccc2nc(SCC(=O)NCc3ccco3)c(C#N)cc2c1	-2.2%
CC(=O)Nc1ccc(-c2nc3ccccc3o2)cc1	-1.9%
COc1cccc(NC(=O)NCc2ccccn2)c1	1.0%

Next entries follow:
structure	HepG2
COc1ccc(C(=O)Nc2ccc(C(F)(F)F)n(C)c2=O)cc1	41.4%
CS(=O)(=O)N1CCc2nc(-c3ccccc3)sc2C1	0.1%
C#CCN1C(=O)S/C(=C/C=C/c2ccc(N(C)C)cc2)C1=O	-13.8%
COc1ccc2cc(-c3ccccc3)c(=O)oc2c1	-12.2%
COc1ccc(Oc2nnc(C)c3ccccc23)cc1	-1.6%
CC(C)[C@H](NC(=O)OCc1ccccc1)C(=O)OCC(=O)c1ccccc1	-8.0%
C=CCOc1ccc(/C=C/C(C)=N\O)cc1	-12.8%[12 µM]
CCNc1nc(N)c(C(=O)c2ccc(Cl)s2)s1	-3.9%
O=C1/C(=C/c2ccco2)CCC1C1CCCC1 (stereo unspecified)	-11.9%
Clc1cccc(-c2ccc(-c3nc4ccccn4c3NCc3ccccc3)cc2)c1	-19.7%
C=CCNC(=O)C1CC(=O)N(c2ccc(OCc3ccc(F)cc3)cc2)C1 (stereo unspecified)	-9.0%
O=C(/C=C/c1ccc(OC2CSC2)cc1)c1ccccc1	-3.8%
c1cncc(CSc2ccc(-c3ccc4c(c3)OCO4)nn2)c1	-14.6%
COc1ccc(Nc2n[nH]c(C)c2[N+](=O)[O-])cc1	-13.9%[12 µM]

Among those listed so far, 19 contain fluorine.
structure	HepG2
Cn1c(NC(=O)c2ccccc2F)c(-c2cccs2)c(=O)c2ccccc21	-4.8%
Cc1cccc(C)c1OCc1cc(C(=O)N2CCN(c3ccc(F)cc3)CC2)no1	-8.7%
O=C(Nn1cnc2ccccc2c1=O)c1c(F)cccc1F	-0.4%
Cc1ccc2cc(NC(=O)c3cccc(F)c3)ccc2n1	-11.1%
COc1ccc(C(=O)/C=C/c2ccccc2C(F)(F)F)cc1	-19.5%[12 µM]
O=C(Nc1ccc(OC(F)(F)F)cc1)c1n[nH]c(Cn2cncn2)n1	8.6%
O=C(Nc1ccc(F)cc1)c1cc2c(s1)CCCC2	-18.2%
O=C(Nc1nc2c(F)cccc2s1)c1ccco1	-9.0%
Fc1ccc2cc(-c3ccsc3)ncc2c1	0.5%
Cc1ccc(OCC(=O)Nc2ccccc2F)cc1C	12.0%
CN(CCO)c1c2c(nc3cc(-c4cccc(F)c4)nn13)CCCC2	-1.6%
CCC(=O)Nc1ccc2nn(-c3ccc(F)cc3)nc2c1	-11.6%
O=C(Nc1ccccc1F)Nc1ccccc1N1CCCCC1	-1.1%
O=C(/C=C/c1ccc2c(c1)OCO2)Nc1nc2ccc(F)cc2s1	-6.6%
Fc1ccccc1COc1ccc(/C=N/n2cnnc2)cc1	-11.0%
Fc1ccccc1C1CC(c2ccco2)=Nc2ccccc2S1 (stereo unspecified)	2.9%
COc1ccc(C(=O)/C=C/c2ccccc2F)c(OC(=O)c2ccc([N+](=O)[O-])cc2)c1	-24.4%
COc1ccc(C(=O)Nc2ccc(C(F)(F)F)n(C)c2=O)cc1	41.4%
C=CCNC(=O)C1CC(=O)N(c2ccc(OCc3ccc(F)cc3)cc2)C1 (stereo unspecified)	-9.0%

Screening data as filed in PubChem.
